LANA-H2A inh – blockers of LANA interaction with H2A/H2B – biochemical, FP readout, HTS, primary screen. AID 2629, 2010. Protein LANA1 (Human herpesvirus 8 type P (isolate GK18)), Q9QR71. 320,000 compounds, 0.6% hits. cell-free LANA-H2A/H2B peptide, fluorescence polarization. inhibition, % (no concentration beside the values); in the data active = inhibition mostly above about 10%, no sharp cut-off; inactive = mostly below about 6.7%;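 note: stock transfer was 7.5 nL into about 10 µL; 0% = median of vehicle wells and 100% = median of positive control wells; one replicate is shown; the record names a cut of 25% in any replicate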
RanGTP-Imp inh – inhibitors of RanGTP-importin-beta interaction, primary screen, biochemical, FRET, CFP-Ran, YFP-importin-beta, homogeneous; inhibition, % (concentration not given with the values); Ran GTPase (GTP-bound) - importin-beta complex; cell-free CFP-Ran/YFP-importin-beta FRET ratio; 300,000 compounds, 1.1% hits;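 active = most replicates above 15%; inconclusive = exactly half above 15%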;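 note: 0% = DMSO wells and 100% = Ran loaded with GDP instead of GTP; wells of about 40 µL received 100 nL stock; the first replicate is given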
UCH37 DUB inh – inhibitors of human UCH37 deubiquitinase, primary screen, biochemical, Ub-AMC cleavage, fluorescence; Ubiquitin carboxyl-terminal hydrolase isozyme L5 (Homo sapiens), Q9Y5K5; purified proteasome/UCH37; inhibition, % (concentration not given with the values); 330,000 compounds, 0.33% hits; AID 588478, 2011;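 active = mean of two replicates above 20%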;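 note: 0% = compound-free wells with enzyme and 100% = wells lacking proteasome; stock transfer was 100 nL into about 20 µL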
Target sequence (Q9Y5K5 whole entry, looked up): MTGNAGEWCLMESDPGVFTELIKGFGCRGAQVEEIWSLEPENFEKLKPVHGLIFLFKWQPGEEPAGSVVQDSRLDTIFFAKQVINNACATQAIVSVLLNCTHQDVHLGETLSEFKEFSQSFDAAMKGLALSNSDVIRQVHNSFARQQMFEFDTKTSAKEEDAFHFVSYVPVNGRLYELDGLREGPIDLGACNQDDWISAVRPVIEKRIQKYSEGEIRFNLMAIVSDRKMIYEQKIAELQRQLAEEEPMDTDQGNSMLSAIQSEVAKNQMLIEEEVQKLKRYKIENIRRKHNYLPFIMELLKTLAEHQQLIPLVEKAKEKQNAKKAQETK
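assay system = human UCH37 enzyme supplied as purified proteasome complex | amount = proteasome at 0.15 nM in the dispensed enzyme solution | schedule = 30 min compound-proteasome preincubation then 25 min substrate reaction, room temperature | measured by = fluorescence, ex 355 nm, em 460 nm | benchmarks = no-proteasome wells (full inhibition) and compound-free wells (no inhibition)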
Beta2AR agonist – beta2AR agonists driving receptor internalization, primary screen, cell-based, FAP fluorogen, flow cytometry | Am2.2-beta2AR cells; reference of the scale not given here | response, % (concentration not given with the values) | 340,000 compounds, 0.43% hits;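 active = response above a set limit, near 3 SD of response in nonfluorescent compounds, cut at about 42% in these data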;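 note: stock transfer was 100 nL into about 11 µL; a reference agonist was the positive control; negative values mostly stem from fluorescent compounds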
Target sequence (P07550 whole entry, looked up): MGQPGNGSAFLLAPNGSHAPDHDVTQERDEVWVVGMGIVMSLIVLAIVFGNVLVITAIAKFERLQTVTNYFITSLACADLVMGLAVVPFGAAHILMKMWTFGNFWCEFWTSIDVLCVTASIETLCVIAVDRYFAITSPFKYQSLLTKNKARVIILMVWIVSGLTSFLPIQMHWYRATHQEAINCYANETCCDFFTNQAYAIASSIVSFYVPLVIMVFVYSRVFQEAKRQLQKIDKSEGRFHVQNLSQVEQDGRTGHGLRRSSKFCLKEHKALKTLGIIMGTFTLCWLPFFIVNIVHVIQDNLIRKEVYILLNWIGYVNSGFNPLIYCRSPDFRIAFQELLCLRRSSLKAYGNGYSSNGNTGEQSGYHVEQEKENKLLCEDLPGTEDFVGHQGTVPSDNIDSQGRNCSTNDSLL
Calb FLC – C. albicans growth inhibition with fluconazole, primary screen, CaCi-2 strain, Alamar Blue fluorescence. C. albicans CaCi-2 (fluconazole-resistant clinical isolate) + fluconazole, 48 h. growth inhibition, % (test concentration not listed). 300,000 compounds, 0.57% hits. AID 1979, 2009;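 active = most replicates above 75%; inconclusive = exactly half above 75%; inactive = most below 75%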;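 note: all wells also contain fluconazole at 8 µg/ml as a sub-toxic cotreatment; 0% = median of DMSO wells and 100% = median of geldanamycin control wells; wells of about 8 µL received 7.5 nL stock; the first replicate is given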
Beta apoptosis – inhibitors of cytokine-induced beta cell apoptosis, primary screen, luminescence; INS-1E cytokine-induced death, ATP luminescence, 48 h; percent of positive-control rescue, neutral wells zero; protection from apoptosis, % (test concentration not listed); 300,000 compounds, 0.8% hits;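 active = all replicates at 75% or more, or half of them and the mean; inconclusive = half reach 75% but not the mean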;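 note: 0% = cytokine-treated negative control wells and 100% = positive control rescue; higher means more ATP so stronger rescue from cytokine killing; wells of about 40 µL received 100 nL stock; the first replicate is given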
T cruzi inh – inhibitors of intracellular T. cruzi growth, primary screen, luminescence, NIH3T3 host cells | T. cruzi beta-gal in NIH3T3, 90 h | inhibition, % (test concentration not listed) | 300,000 compounds, 1.4% hits | AID 1885, 2009;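 active = mean inhibition across valid replicates above about 55%, limit read from the data; inconclusive = mean below that limit but half or more replicates reach it; inactive = mean below it, under half of replicates reach it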;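 note: signal also drops with host cell toxicity which is not excluded here; 0% = plate median of DMSO wells and 100% = zero luminescence signal; higher percent means less beta-gal luminescence so fewer parasites; stock transfer was 50 nL into about 50 µL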
Bfl-1 A1 inh – caspase 3/7 activation in MEF A1-2A-BIM cells, primary screen, A1 inhibitor project, cell-based, luminescence, HTS. Caspase-Glo 3/7 luminescence, 3 h; percent of clofoctol response, vehicle zero. caspase activation, % (no concentration beside the values). 330,000 compounds, 0.066% hits;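 active = over half of replicate activation scores above 10%, or exactly half above 10 with the replicate mean above 10; inconclusive = replicate mean below 10 yet half the replicates above 10; inactive = over half of replicates below 10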;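 note: wells of about 30 µL received 50 nL stock; many hits fall short of the cut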
An asterisk follows results filed as active; ? = inconclusive; nt = not tested or not shown.

1) Clc1cccc(Cl)c1Cl
2) CC[C@H]1CN2CC[C@@]3(C(=O)Nc4ccccc43)[C@@H]2C[C@@H]1/C(=C\OC)C(=O)OC
3) O=C(CNC(=O)OCc1ccccc1)Nc1ccc(Br)cc1C(=O)c1ccccc1
4) Cc1cc(C)c(-n2c(O)c(/C=N/N3CCCCC3c3cccnc3)c(=O)[nH]c2=O)c(C)c1 (configuration not stated)
5) CN(C)P(=O)(CCl)Nc1ccccc1 (configuration not stated)
6) CC(=O)C1C2c3ccccc3OC1(C)N=c1s/c(=C/c3cn(C)nc3C)c(=O)n12 (configuration not stated)
7) CCOP(=O)(OCC)c1cccc(O)c1
8) O=C(Nc1ccc(Cl)cc1C(=O)c1ccccc1)c1ccc(Br)o1
screen / no.	1	2	3	4	5	6	7	8
LANA-H2A inh	-98	1.9	-3.0	3.8	1.4	-5.8	2.4	0.5
RanGTP-Imp inh	nt	-1.0	5.4	0.1	1.1	4.9	-3.7	-2.2
UCH37 DUB inh	0.0	0.1	0.8	2.0	3.2	nt	0.8	1.3
Beta2AR agonist	11	nt	-1	2	2	-2	4	0
Calb FLC	nt	5	-5	-2	-2	-4	-6	-15
Beta apoptosis	6	-2	7	-9	-2	-8	-8	-9
T cruzi inh	nt	3	16	-11	-7	0	-12	14
Bfl-1 A1 inh	-0.2	1.1	-0.7	0.8	0.5	0.7	0.7	-0.2

9) CCS(=O)(=O)NCc1nnc2n1-c1ccc(Cl)cc1C(c1ccccc1)=NC2
10) O=C1N(c2nncs2)CCN1[N+](=O)[O-]
11) CCn1cc(/C=c2/sc3n(c2=O)C2c4ccccc4OC(C)(N=3)C2C(=O)OC)c(C)n1 (configuration not stated)
12) CCc1nnc(NC(=O)CCc2nc(C3=CCN(C)CC3)no2)s1
13) CCCC[n+]1cc(=N)o[n-]1
14) O=S1(=O)N(Cc2ccc(F)cc2)CCCN1Cc1ccccc1Cl
15) COC(=O)C1=C(c2cccc(OC)c2OC)C[C@@H]2CC[C@H]1N2C(=O)NCc1ccco1
16) C=Cn1ccnc1P(=S)(c1cc(N(CC)CC)ns1)c1nccn1C=C
screen / no.	9	10	11	12	13	14	15	16
LANA-H2A inh	-4.0	-9.7	0.8	3.8	5.1	16	-1.0	-1.0
RanGTP-Imp inh	-1.1	1.7	-1.4	-1.8	4.3	3.9	6.0	?
UCH37 DUB inh	0.8	1.9	nt	4.0	3.5	1.3	-1.7	2.3
Beta2AR agonist	6	1	8	-8	-3	7	1	3
Calb FLC	-6	-1	-2	-4	0	15	-12	0
Beta apoptosis	-3	-3	1	-4	0	4	-1	-3
T cruzi inh	3	1	3	8	-8	14	4	-2
Bfl-1 A1 inh	-0.1	-2.4	0.5	0.2	0.0	0.7	0.5	0.4

Retrieved by structure from above:
16) C=Cn1ccnc1P(=S)(c1cc(N(CC)CC)ns1)c1nccn1C=C
12) CCc1nnc(NC(=O)CCc2nc(C3=CCN(C)CC3)no2)s1
13) CCCC[n+]1cc(=N)o[n-]1
15) COC(=O)C1=C(c2cccc(OC)c2OC)C[C@@H]2CC[C@H]1N2C(=O)NCc1ccco1
11) CCn1cc(/C=c2/sc3n(c2=O)C2c4ccccc4OC(C)(N=3)C2C(=O)OC)c(C)n1 (configuration not stated)
screen / no.	16	12	13	15	11
LANA-H2A inh	-1.0	3.8	5.1	-1.0	0.8
RanGTP-Imp inh	?	-1.8	4.3	6.0	-1.4
UCH37 DUB inh	2.3	4.0	3.5	-1.7	nt
Beta2AR agonist	3	-8	-3	1	8
Calb FLC	0	-4	0	-12	-2
Beta apoptosis	-3	-4	0	-1	1
T cruzi inh	-2	8	-8	4	3
Bfl-1 A1 inh	0.4	0.2	0.0	0.5	0.5

(list continues)
17) COc1ccc(C(=O)C2CCCN(Cc3ccsc3)C2)cc1OC (configuration not stated)
18) CCCCn1c(O)c(/C=N/NC(=O)c2ccncc2)c(=O)[nH]c1=O
19) COC(=O)C1=C(c2cccc(C#N)c2)C[C@@H]2CC[C@H]1N2C(=O)N1CCC(C)CC1
20) O=C(O)C1C(C(=O)O)C2(Cl)C(Cl)=C(Cl)C1(Cl)C2(Cl)Cl (configuration not stated)
21) CCC(C)n1c(O)c(C=Nc2cccc(C(F)(F)F)c2)c(=O)[nH]c1=S (configuration not stated)
22) COc1ccc(-n2c(O)c(C=NCCN3CCN(C(C)=O)CC3)c(=O)[nH]c2=S)cc1
23) CC(C)(C)n1cc(C(=O)c2ccc3ccccc3c2O)cn1
24) O=[N+]([O-])c1ccc(NCc2ccc(Cl)cc2)c2ccncc12
screen / no.	17	18	19	20	21	22	23	24
LANA-H2A inh	0.7	-2.0	-4.9	1.5	12	4.8	6.3	-1.6
RanGTP-Imp inh	?	1.1	nt	nt	0.7	1.8	-1.2	6.6
UCH37 DUB inh	2.7	-14	3.3	-0.8	4.6	6.0	-1.3	3.7
Beta2AR agonist	3	-1	1	-1	-20	-5	2	10
Calb FLC	-35	4	nt	nt	5	7	10	8
Beta apoptosis	-4	-9	0	0	-6	-4	10	22
T cruzi inh	52	-19	nt	nt	4	-7	18	37
Bfl-1 A1 inh	?	0.4	0.7	-0.4	2.1	0.1	-0.4	0.1

25) CC1CCC(C(=O)NC(C(=O)N2CCC3(CC2)OCCO3)C(C)C)CC1 (configuration not stated)
26) CC1=NN(c2ccccc2)C(=O)/C1=C/c1c(O)[nH]c(=O)[nH]c1=O
27) C/C(=N\NC(N)=O)c1c(O)n(C)c(=O)n(C)c1=O
28) O=C(c1sc2ccccc2c1Cl)N1CCC2(CC1)OCCO2
29) CCCCc1nc2ccccc2c(=O)n1-c1ccccc1O
30) Cc1cc(/C=C2\C(=O)NC(=O)N(c3ccc(Br)cc3)C2=O)c(C)n1C
31) Cc1nn(Cc2ccccc2)c(Cl)c1C(=O)OCC(=O)NCC1CCCO1 (configuration not stated)
32) CC(C)OP(=O)(OC(C)C)C(O)c1cccnc1 (configuration not stated)
screen / no.	25	26	27	28	29	30	31	32
LANA-H2A inh	-0.1	-4.4	-8.5	1.9	-3.7	3.7	-1.0	4.8
RanGTP-Imp inh	5.7	1.4	1.5	1.7	-0.4	-0.1	3.3	-1.1
UCH37 DUB inh	4.3	nt	0.3	-0.9	-0.6	-4.2	1.1	1.1
Beta2AR agonist	-4	1	0	-1	16	-4	2	-5
Calb FLC	9	-15	16	-14	-3	-2	-4	-16
Beta apoptosis	1	-7	-2	3	-6	6	-10	2
T cruzi inh	12	-9	3	14	4	-8	4	-6
Bfl-1 A1 inh	-0.6	0.6	0.1	0.7	0.0	0.6	0.9	-0.1

33) C[C@]12CC[C@@H](O)C[C@@H]1CC[C@@H]1[C@@H]2CC[C@]2(C)[C@@H](O)CC[C@@H]12
34) COc1ccc2[nH]c3c(c2c1)CCNC3
35) Cc1cccc(N=Nc2ccc(N(C)C)cc2)c1
36) Cc1ccc(NC(=O)CN2C(=O)CN=C(c3ccccc3)c3cc(Cl)ccc32)cc1
37) CCC1(CC)C(=O)N(Cc2ccccc2)C(=O)N(Cc2ccccc2)C1=O
38) C/C=C(\C)C(=O)N[C@@H](c1ccccc1)[C@@H](O)C(=O)O[C@H]1C[C@@]2(O)[C@@H](OC(=O)c3ccccc3)C3[C@](C)(C(=O)[C@H](OC(C)=O)C(=C1C)C2(C)C)[C@H](O)C[C@H]1OC[C@@]31OC(C)=O (some centres not stated)
39) COc1ccc(-c2nn(CCC#N)cc2C(=O)NCc2ccccc2)cc1[N+](=O)[O-]
40) CC(=NCCN(C)C)c1c(O)n(Cc2ccccc2)c(=O)[nH]c1=O
screen / no.	33	34	35	36	37	38	39	40
LANA-H2A inh	-2.4	9.1	0.2	nt	0.7	6.6	-3.6	-1.0
RanGTP-Imp inh	?	nt	?	-1.0	-0.8	1.0	2.3	0.2
UCH37 DUB inh	3.0	3.5	3.2	2.6	2.4	3.3	2.0	-0.1
Beta2AR agonist	14	-1	0	9	3	-17	3	7
Calb FLC	5	nt	-21	-1	2	7	-2	3
Beta apoptosis	0	-2	2	nt	2	5	-10	-4
T cruzi inh	17	nt	12	7	61*	56*	-7	-9
Bfl-1 A1 inh	0.4	0.7	-3.3	nt	0.0	1.0	1.2	1.0

41) Cc1cc(C)cc(N2C(=O)NC(=O)/C(=C\c3cccn3-c3ccccc3)C2=O)c1
42) CC(=NCCN1CCCCC1)c1c(O)n(Cc2ccccc2)c(=O)[nH]c1=O
43) O=c1[nH]c(O)c(N=Nc2ccc([N+](=O)[O-])cc2)c(=O)[nH]1
44) O=C1NCN(c2ccccc2)C12CCNCC2
45) CCOc1cc(C=C2C(=O)NC(=O)NC2=O)ccc1OCC(=O)N1CCOCC1
46) O=[N+]([O-])c1ccc(-[n+]2c(-c3ccccc3)cc(-c3ccccc3)cc2-c2ccccc2)cc1
47) O=C(O)[C@@H]1C[C@H]1[C@@H](NP(=O)(c1ccccc1)c1ccccc1)c1ccccc1
48) COC(=O)C1=C(c2ccc(OC(F)(F)F)cc2)C[C@@H]2CC[C@H]1N2C(=O)NC1CCCCC1
screen / no.	41	42	43	44	45	46	47	48
LANA-H2A inh	2.7	-5.0	1.2	-0.2	-5.1	2.9	-4.0	-1.7
RanGTP-Imp inh	0.1	1.6	0.7	?	3.6	0.9	3.5	nt
UCH37 DUB inh	nt	1.0	13	6.1	5.2	3.4	-0.7	3.5
Beta2AR agonist	13	-4	9	0	3	11	4	-4
Calb FLC	-6	6	2	13	0	-2	-5	nt
Beta apoptosis	-22	0	0	3	1	nt	nt	-1
T cruzi inh	-13	-16	-21	-5	1	57*	-12	nt
Bfl-1 A1 inh	0.6	1.1	-1.4	1.0	-0.9	0.2	-0.1	0.1

49) CCCCCCC(=O)N/N=C/c1c(O)n(CCc2ccccc2)c(=O)[nH]c1=O
50) O=C1C2CCCN2C(c2cccnc2)N1c1ccc(Cl)cc1 (configuration not stated)
51) CCCCC1(CCCC)C(=O)NC(=Nc2cccc(C)c2)NC1=O
52) COc1ccc2[nH]c3c(c2c1)CCN[C@H]3C
screen / no.	49	50	51	52
LANA-H2A inh	-5.1	-2.7	-3.1	1.7
RanGTP-Imp inh	-2.1	1.8	5.9	2.6
UCH37 DUB inh	4.8	0.8	-1.7	-2.6
Beta2AR agonist	19	-1	18	1
Calb FLC	-27	17	-1	-8
Beta apoptosis	18	nt	6	-5
T cruzi inh	nt	26	-5	0
Bfl-1 A1 inh	-0.5	0.2	-0.4	1.9

Only RanGTP-Imp inh, Beta apoptosis and Calb FLC (2 entries from above):
No.	Compound	RanGTP-Imp inh	Beta apoptosis	Calb FLC
1	Clc1cccc(Cl)c1Cl	nt	6	nt
15	COC(=O)C1=C(c2cccc(OC)c2OC)C[C@@H]2CC[C@H]1N2C(=O)NCc1ccco1	6.0	-1	-12

Assay outcomes (PubChem)

Only part of the results is shown (hit frequency here may not be typical).
